gsp agonist = qHTS for Agonist of gsp, the Etiologic Mutation Responsible for Fibrous Dysplasia/McCune-Albright Syndrome: qHTS. gsp mutant cells, cAMP HTRF, 30 min; control for the full effect not named in the record. Potency, µM (top dose mostly 76.9 µM), without a hit: top-dose activation (cAMP increase), hits mostly activators. 0.13% of 340,000 active. AID 624287, 2012; active = well fitted activation curve with a large enough effect; inconclusive = small, poorly fitted or top-dose-only effect, or another doubt; inactive = no such curve, though single readings can be large or run the other way; cell line not stated here;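 note: phosphodiesterase inhibitor Ro 20-1724 added with compounds to block cAMP breakdown; potency is the fitted concentration of half-maximal effect; nearly all actives have a fitted effect of over 60% in size; about a fifth of the inactives were tested at one dose only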
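Cells in DMEM/10% FBS with G418 were pretreated with compounds in DMSO plus […] (300 uM stock) for 30 min at 37C. cAMP was measured by HTRF (cAMP-d2 plus anti-cAMP antibody-K) after 30 min at room temperature.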
Sfp PPTase inh = qHTS Assay for Inhibitors of Bacillus subtilis Sfp phosphopantetheinyl transferase (PPTase); 4'-phosphopantetheinyl transferase ffp (Bacillus subtilis), Q9F4F7; Biochemical Sfp PPTase activity, qHTS; Potency, µM, for the others: max response, negative = inhibition, usual class: inhibitors; 3.5% of 310,000 active; active = well fitted inhibition curve with a large enough effect; inconclusive = small, poorly fitted or top-dose-only effect, or another doubt; inactive = no such curve, though single readings can be large or run the other way;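 note: the enzyme is Sfp with the accession as filed and its product quenches rhodamine fluorescence; potency is the fitted concentration of half-maximal effect; 0% = enzyme reaction without inhibitor and -100% = no enzyme wells; top concentration of the series not given in the record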
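Step 1, compound plus 15 nM Sfp-PPTase, 15 min, room temperature. Step 2, add rhodamine-CoA (5 uM) and BHQ-2-YbbR (12.5 uM). Step 3, read 525/598 nm fluorescence at 0 and 30 min.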
Menin-MLL FL inh = qHTS Assay for Inhibitors Targeting the Menin-MLL Interaction in MLL Related Leukemias: Competition With Fluorescein Labeled MLL-derived Peptide. Fluorescence polarization, fluorescein-MLL peptide displacement from menin. FP activity change, % at 61.4 µM. 290,000 tested, under 10 active; inconclusive = falling polarisation curve, or a change in total fluorescence; inactive = total fluorescence flat and polarisation flat or rising; no compound was filed as active; the % refers to the polarisation; negative = inhibition;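 note: % of control where 0% means no effect; inhibitors lower the polarisation; unlabelled MLL peptide was the positive control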
ClpP mod = qHTS Assay for Activators of ClpP; Potency, µM (doses to about 57.5 µM), without a hit: at the top dose activity change, negative = active; 1.9% of 340,000 active; ATP-dependent Clp protease proteolytic subunit (Bacillus subtilis (strain 168)), P80244; purified B. subtilis ClpP, FRET peptide cleavage, 20 min; active = well fitted falling curve with a large enough effect; inconclusive = small, poorly fitted or top-dose-only effect; inactive = no such curve, though single readings can be large or run the other way; note: potency is the fitted concentration of half-maximal effect; the source files actives as falling curves though it sought activators and does not explain the sign; nearly all actives have a fitted effect of over 65% in size; many hits overshoot -100%
Target sequence (P80244 whole entry, looked up): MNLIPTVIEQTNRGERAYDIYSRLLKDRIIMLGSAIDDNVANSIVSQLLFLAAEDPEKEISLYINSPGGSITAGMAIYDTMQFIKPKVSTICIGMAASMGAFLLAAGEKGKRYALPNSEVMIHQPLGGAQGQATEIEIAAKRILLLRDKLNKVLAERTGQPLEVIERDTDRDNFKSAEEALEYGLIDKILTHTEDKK
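Purified B. subtilis ClpP, 10 microg/mL final in Tris/HCl pH8 with KCl, BSA, glycerol and Tween-20, cleaved an Abz/nitrotyrosine-quenched decapeptide. Fluorescence (ex 320, em 430) was read at 0 and 20 min at room temperature. Delta was normalized to 5.8 microM ADEP and DMSO/no-enzyme controls.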
TRPV1 potentiator = HTS Assay for Compounds that Act as Potentiators of the Vanilloid Receptor 1; AID 540277, 2011; 0.02% of 320,000 active; Transient receptor potential cation channel subfamily V member 1 (Homo sapiens), Q8NER1; potentiation, % at 8.33 µM; TRPV1-expressing cells, Fluo-8 calcium influx, capsaicin EC20 potentiation; host cell line not named in the record; control for the full effect not named in the record; active means potentiation above 80%; inconclusive means 30% to 80%; inactive means below 30%; note: 0% is about no effect
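TRPV1-expressing cells were cultured overnight at 35.5C and loaded with Fluo-8 calcium dye for 40 to 90 min at room temperature. After a 10 s baseline, compound was added and calcium influx was read kinetically for 3 min (ex 480/em 520 nm).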
D2 PAM = Beta-Arrestin HTS for Positive Allosteric Modulators of the Human D2 Dopamine Receptor: Potentiators; potentiation, % (concentration not given with the values); D(2) dopamine receptor (Homo sapiens), P14416; DiscoveRx D2 beta-arrestin cells, luminescence, 90 min; 100% = 57 uM dopamine signal; 0.23% of 360,000 active; active = potentiation of 50% or more; inconclusive = 30% to 50%; inactive = 30% or less;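 note: compound concentration not given in the record; tested on top of an EC20 dose of dopamine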
Target sequence (P14416 whole entry, looked up): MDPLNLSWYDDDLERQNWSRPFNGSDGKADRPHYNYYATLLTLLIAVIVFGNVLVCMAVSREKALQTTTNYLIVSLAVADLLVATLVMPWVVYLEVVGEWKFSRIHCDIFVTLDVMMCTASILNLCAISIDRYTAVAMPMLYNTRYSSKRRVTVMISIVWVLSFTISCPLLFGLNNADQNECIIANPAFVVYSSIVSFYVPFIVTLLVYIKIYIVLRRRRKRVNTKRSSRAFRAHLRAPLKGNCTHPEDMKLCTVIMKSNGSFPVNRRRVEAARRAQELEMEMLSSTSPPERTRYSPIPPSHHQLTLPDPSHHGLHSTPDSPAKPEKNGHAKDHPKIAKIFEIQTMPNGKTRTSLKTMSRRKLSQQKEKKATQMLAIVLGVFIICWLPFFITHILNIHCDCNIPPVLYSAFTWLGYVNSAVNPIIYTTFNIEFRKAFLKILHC
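D2 cells co-treated with compound plus 50 nM dopamine (EC20) for 90 min at 37 deg C to detect potentiation. Beta-arrestin recruitment was read as enzyme-fragment luminescence after 1 h at ambient temperature. Full response was set by 57 uM dopamine.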
gsp antag = qHTS for Antagonists of gsp, the Etiologic Mutation Responsible for Fibrous Dysplasia/McCune-Albright Syndrome: qHTS; gsp-mutant cells, cAMP HTRF, 30 min; control for the full effect not named in the record; Potency, µM (titrated, usually from 76.9 µM), for the others: top-dose activity change, negative = inhibition, most hits filed as inhibitors; 0.4% of 340,000 active; AID 624288, 2012; active = falling curve of any shape with a large fitted effect; inconclusive = falling curve, mostly with a smaller effect; inactive = flat or rising curve; cell line not stated here;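 note: intracellular cAMP measured with PDE inhibitor Ro 20-1724 present during compound exposure; potency is the fitted concentration of half-maximal effect; % is set by controls: 0 for no effect and ±100 for the full control effect; nearly all actives have a fitted effect of over 65% in size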
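Cells in G418 medium, seeded 16-24 h, 37C; buffer exchange to DPBS + 1 mM CaCl2, 0.5 mM MgCl2, 0.05% BSA; cpds in DMSO + […] (300 uM stock), 30 min 37C; HTRF cAMP detection.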
* = called active by the depositor; ? = inconclusive; · = no result given; [ ] = dose if it differs, or a comment.

Value order – gsp agonist	Sfp PPTase inh	Menin-MLL FL inh	ClpP mod	TRPV1 potentiator	D2 PAM	gsp antag
- CN(C)CCCOC(=O)COc1ccc(Br)cc1
→ 17.8%	9.9%	2.3	0.1%	·	-16.5	6.9%
- CC(=O)Nc1ccc(/C=N/NC(=O)c2cccs2)cc1
→ 0.9%[15.4 µM]	10.0%	-1.6	·	-2.0	-6.8	-2.7%
- CCC(=O)Nc1ccc(/C(C)=N\NC(=O)c2ccc(C)s2)cc1
→ -22.2%	17.2%	1.3	?	-13.6	-10.7	8.4%
- O=C(CCS(=O)(=O)c1ccc(F)cc1)Nc1ccc(N2CCN(Cc3ccccc3)CC2)cc1
→ -11.4%	·	·	0.7%	1.3	-6.5	4.4%
- C=CCn1c(SCc2ccccc2)nc(O)cc1=O
→ -7.9%	5.3%	-0.2	1.3%	-4.5	-2.9	-21.8%[15.4 µM]
- O=C1CC(C(=O)O)S/C(=N\NC(=O)c2ccccc2)N1 (stereo not given)
→ 32.4%	?	3.1	-1.1%	-5.0	-7.6	7.4%
- COc1cccc(NC(=O)c2ccc(-c3ccccc3[N+](=O)[O-])o2)c1
→ -14.8%[15.4 µM]	44.7µM*	5.2	·	3.3	-6.6	·
- COc1ccc(C(NC=O)c2cc(OC)c(OC)cc2Br)cc1OC (stereo not given)
→ 3.4%	5.3%	0.9	-2.2%	2.6	6.3	3.8%
- Cc1ccccc1C(=O)N1CCC(C(=O)NC(C)c2ccc(-n3ccnc3)cc2)CC1 (stereo not given)
→ 5.6%	18.1%	·	-1.0%	17.8	-3.8	2.7%
- FC(F)(F)c1cc(-c2ccccc2)nc2nc(N3CCOCC3)sc12
→ 0.9%	12.0%	-3.0	3.4%	-3.1	-6.6	-3.8%
- COc1cc(C(=O)OCC(=O)Nc2ccc(S(=O)(=O)NC3=NCCCCC3)cc2)cc(OC)c1OC
→ 2.3%	·	·	-15.4%	·	-5.5	8.1%
- COc1ccc(/C=N/NC(=O)Cn2cnc3ccccc3c2=O)cc1OC
→ 1.4%[15.4 µM]	11.5%	4.1	0.1%	8.8	-6.6	17.4%
- CCN(CC)S(=O)(=O)c1ccc(N2CCOCC2)c(NC(=O)c2cccc3c(=O)c(C)c(-c4ccccc4)oc23)c1
→ ?	·	·	-25.1%	·	-22.7	6.5%
- CCCCOc1cc(NCc2ccccc2)c2ncn(C(C)C)c2c1
→ ·	·	·	-8.3%	·	4.0	-0.1%
- O=S(=O)(c1cccc2ccccc12)N1CCSC1
→ 14.7%	11.8%	-1.4	-0.3%	0.0	-4.2	-3.2%
- Cc1ccc(NC(=O)C2=CC(c3ccc(C)cc3)=NS(=O)(=O)N2C)cc1
→ ?	14.5%	0.0	0.4%	-3.4	-15.5	-13.0%
- NNC(=O)c1nc[nH]c1C(=O)Nc1ccccn1
→ -27.6%	26.0%	1.0	-1.3%	-4.2	-6.3	4.6%
- CCc1cccc(OCCCCNCCOC)c1
→ -1.4%	-20.3%	4.9	1.2%	22.2	-20.3	7.6%
- COC(=O)Oc1nsnc1N1CCOCC1
→ ?	12.6µM*	0.6	-0.9%	-0.5	2.3	-1.0%
- S=c1[nH]nc(-c2cc(-c3ccccc3)n[nH]2)n1/N=C/c1c2ccccc2cc2ccccc12
→ -4.3%	50.1µM*	-7.3	·	4.5	-1.8	?
- Cn1c(=O)c2c(ncn2CC(=O)Nc2nc3ccc(F)cc3s2)n(C)c1=O
→ ?	-3.6%	0.5	0.1%	7.3	1.5	-3.5%
- COc1ccc(C(=O)NC2CCCc3c2cnn3-c2ccc(C)c(C)c2)c(OC)c1OC (stereo not given)
→ -8.2%	-16.1%	·	1.1%	29.2	10.2	-39.4%
- COc1ccc(CCNS(=O)(=O)c2cccc(F)c2)cc1OC
→ 2.6%	4.7%	2.3	-3.6%	2.4	7.9	-4.4%
- Cn1c(=O)c(-c2cc(=O)[nH][nH]2)c(O)c2ccccc21
→ -0.8%[15.4 µM]	22.0%	-0.4	·	-19.5	-6.4	-12.7%
- CSc1nc(NCCN(C)C)c2sc3nc(-c4ccco4)c4c(c3c2n1)CCC4
→ -16.4%[15.4 µM]	·	·	·	·	-7.1	6.5%
- CC(=O)c1cccc(S(=O)(=O)Nc2cccc(S(=O)(=O)NC3=NCCC3)c2)c1
→ -41.3%	4.8%	4.3	-3.0%	-2.4	-15.4	8.1%
- O=C(CN1C(=O)COc2ccccc21)N(Cc1ccc2c(c1)OCO2)CC1CCCO1 (stereo not given)
→ ?	15.7%	-0.5	-0.6%	-0.8	-10.2	5.2%
- CC1(C)Cc2nc3sc4c(SCC(=O)NC(c5ccccc5)c5ccccc5)ncnc4c3cc2CO1
→ ?	13.5%	1.7	-4.7%	-8.2	0.2	26.9%
- Cc1ccc(C)c(NC(=O)CSc2nnc([C@@H](N)Cc3ccccc3)o2)c1
→ -43.1%	14.0%	7.2	0.1%	2.5	-18.4	7.0%
- O=C(Nc1ccc(C2CC2(Cl)Cl)cc1)c1cccc([N+](=O)[O-])c1 (stereo not given)
→ -12.1%[15.4 µM]	-1.0%	6.6	-2.1%	12.4	-10.7	?
- O=C(Cc1ccccc1)NCCCN1CCN(CCCNC(=O)Cc2ccccc2)CC1
→ -8.1%	1.4%	3.9	0.1%	-2.7	5.1	-2.7%
- CCCCN(C(=O)CCC(=O)Nc1cc(C)on1)C(C(=O)NC1CCCC1)c1cccc(OC)c1 (stereo not given)
→ -3.1%	-3.2%	-1.3	·	-4.6	-7.4	-8.5%
- CC1CCCCC12NC(=O)N(CC(=O)NC(=O)NCc1ccco1)C2=O (stereo not given)
→ 1.8%	-3.7%	1.2	0.7%	-0.6	-8.7	8.8%
- Cc1ccc(-c2nc(SCC(=O)c3c(N)n(C)c(=O)n(C)c3=O)n[nH]2)cc1
→ ?	13.7%	-2.9	-1.2%	12.2	-2.1	6.5%
- CC(=O)N1CCC(N(C(=O)Nc2ccc(Cl)cc2)C(C)C)CC1
→ -44.0%[inhibitor]	16.1%	1.4	-0.1%	-1.2	-9.3	10.5%
- O=C(CC1C(=O)NCCN1C(=O)Nc1ccc(F)cc1)Nc1ccc(F)cc1 (stereo not given)
→ -6.1%[15.4 µM]	-2.9%	0.9	-1.7%	1.1	-6.8	4.1%
- C/C=C(\C)C(=O)NCCN1C2=NC[C@H](Cc3ccccc3)N2C[C@@H]1Cc1ccc(OC)cc1
→ 14.2%	·	·	-1.0%	·	-10.8	6.2%
- NC(=O)Nc1ccccc1C(=O)N1CCC(O)(c2ccc(Cl)cc2)CC1
→ -38.6%[inhibitor]	0.8%	-0.2	0.5%	-0.1	-6.9	9.5%
- O=C(Nc1ccc(Cl)c(S(=O)(=O)N2CCOCC2)c1)c1cc(-c2ccccn2)nc2ccccc12
→ 8.2%	-2.1%	-2.6	·	-4.4	3.3	-10.7%
- O=S(=O)(NCCNc1ncc(C(F)(F)F)cc1Cl)C(F)(F)F
→ -0.5%[15.4 µM]	20.3%	0.6	·	?	-6.6	?
- Cc1[nH]c2ccccc2c1C(=O)COc1ccccc1
→ -4.0%	21.0%	-0.4	2.2%	17.8	-2.6	1.0%
- CCOc1ccc(OCC(=O)Nc2cc(Cl)ccc2-n2cncn2)cc1
→ -50.3%[inhibitor]	·	·	0.9%	·	-15.1	·
- Cc1ccc(S(=O)(=O)Nc2nc(-c3ccccc3)cs2)cc1
→ 3.6%[15.4 µM]	17.5%	2.9	-3.1%	7.0	-1.5	-3.3%
- CCOc1ccccc1NC(=O)CCC(=O)Nc1nnc(C2CCCCC2)s1
→ ?	-2.9%	4.2	-0.3%	-12.0	-5.7	?
- Cc1ccc(-c2nnn(CC(=O)N(c3ccc(F)cc3)C(C(=O)NC(C)(C)C)c3ccco3)n2)o1 (stereo not given)
→ 14.9%	0.9%	-1.2	-0.5%	9.9	1.9	-4.6%
- COc1ccc(C(=O)NCC(=O)N/N=C/c2cn[nH]c2-c2ccccc2)cc1
→ 17.8%[15.4 µM]	23.0%	-8.3	·	-0.2	-3.4	-15.4%
- O=C(Nc1ccc(S(=O)(=O)N2CCCCC2)cc1)c1cccnc1Cl
→ 24.6%[15.4 µM]	·	·	·	-21.8	-6.3	2.9%
- CSc1nnc(NC(=O)c2nc(S(=O)(=O)Cc3cccc(C)c3)ncc2Cl)s1
→ -9.1%[15.4 µM]	-15.0%	·	·	29.3	-5.5	39.8µM*
- Cc1cc(=O)n(Cc2ccccc2)c2c(C)cccc12
→ 4.1%	2.7%	-1.3	·	13.6	-1.9	-6.7%
- Cc1ccccc1C(=O)NNC(=O)c1cc(S(=O)(=O)N2CCOCC2)ccc1C
→ 13.1%	·	·	-0.3%	3.3	-3.8	5.8%
- COc1ccc(C2CC(c3cccs3)n3nc(N)nc3N2)cc1 (stereo not given)
→ 2.5%	-7.6%	2.4	4.0%	19.0	-7.1	-10.1%
- O=C1NC(=O)N(C2CCCCC2)CC1Br (stereo not given)
→ -8.8%	·	·	·	·	-0.8	2.5%
- Cc1cc(C(=O)NCC(C)(C)N2CCOCC2)c(C)o1
→ -6.3%[15.4 µM]	·	·	·	20.1	0.0	7.3%
- CCCCNC(=O)CSc1nc(Cc2ccccc2)nc2ccccc12
→ -3.1%	8.2%	-0.6	-1.1%	-3.2	1.3	-4.5%
- C=CCn1c(N2CCN(c3ccc(OC)cc3)CC2)nc2c1c(=O)[nH]c(=O)n2C
→ 10.7%	14.7%	4.9	·	-3.4	-5.3	8.7%

Screening results from PubChem BioAssay.
